Compound activity from PubChem.
HIV Env fusion – inhibitors of HIV-1 Env-driven cell-cell fusion, primary screen, HeLa-JRFL effector, CEM21 target cells, luciferase; inhibition, % at 12.3 µM; 360,000 tested, 1.1% active;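 active means mean replicate inhibition score of at least 50 and every replicate individually at or above 50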;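 further: 0% = plate neutral controls and 100% = maraviroc near 300 nM; one replicate is shown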
MT1-MMP act inh – blockers of MT1-MMP proenzyme processing, primary screen, HT1080 RFP-PRO-GFP cells, GFP/RFP fluorescence; Matrix metalloproteinase-14 (Homo sapiens), P50281; GFP/RFP ratio fluorescence, overnight; percent of plate control window, DMSO zero; GFP/RFP ratio change, % at 20 µM; 360,000 tested, 0.061% active; AID 651647, 2012;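 active means GFP/RFP ratio change of at least 30% with cell ATP level not reduced by more than half and red fluorescence within 50% of control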; further: strong numbers were not always called active
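system = RFP-PRO-GFP reporter HT1080 cells | dosing = 20 µM single dose, 1% DMSO | timing = overnight cell settling, then overnight compound exposure, 37 °C, 5% CO2 | read-out basis = GFP/RFP fluorescence ratio | controls = DMSO and RFP-L50D-GFP cell wells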
MT1-MMP act inh RFP – second read-out of MT1-MMP act inh, no call of its own (marks repeat the call); RFP signal change, %; measured here: RFP expression control read;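 0 = vehicle wells; hits needed this value within 50% of zero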
The depositor's hits bear a star; & = joins results of further samples. The list is partial; the hit share may differ from the screen's.

HIV Env fusion	MT1-MMP act inh	MT1-MMP act inh RFP	smiles
31.7	-9.1	-8.8	Cc1ccc(S(=O)(=O)N2C3CC(c4ccccc4)N(S(=O)(=O)c4cccc(Cl)c4)CC3C(=O)C[C@H]2c2ccccc2)cc1 (stereo partly specified)
15.6	4.2	5.1	CCC(=O)N1Cc2cc(C(=O)NCC(F)(F)F)nc(-c3cccc(-c4cncnc4)c3)c2[C@H]1CCO
8.4	3.0	3.6	CCOC(=O)[C@]12CCC=C1N(CCC1=CCCCC1)C(=O)[C@H](CC(=O)NCc1ccc(OC)c(OC)c1)C2
-43.0	-1.8	-0.1	CCC(C(=O)NCc1ccccc1)n1c(-c2ccc3c(c2)CCO3)nc2ccccc21 (stereo unspecified)
-13.1	7.1	-30.0	COC(=O)[C@]12CCCCC=C1N(Cc1ccc(Cl)cc1Cl)C(=O)[C@H](CC(=O)NCc1ccc(OC)c(OC)c1)C2
18.3	-1.4	-12.0	CCOC1=C2CN(S(=O)(=O)c3ccc(C)cc3)C(c3ccccc3)CC2N(S(=O)(=O)c2ccc(C)cc2)C(c2ccc(Br)cc2)C1 (stereo unspecified)
-18.3	-3.5	-9.7	CCOC(=O)[C@]12CCC=C1N(Cc1ccc(Cl)cc1Cl)C(=O)[C@H](CC(=O)N1CCCCC1)C2
-20.4	0.2	4.3	Cc1nnc(NC(=O)c2ccc(N3CCCC3=O)cc2)s1
-8.7	5.8	4.8	COc1ccc(CN2C(=O)CCC2(C)c2nnnn2-c2ccc3c(c2)OCCO3)cc1 (stereo unspecified)
17.4	-3.8	-0.4	CC1(C(=O)NS(=O)(=O)c2ccccc2C(F)(F)F)CCN1C(=O)CCC1CCCC1 (stereo unspecified)
16.7	3.6	-19.7	Cc1cc2c(cc1C)-c1nnnn1C(N1CCC(Cc3ccccc3)CC1)C(=O)N2 (stereo unspecified)
3.8	-3.0	-11.6	Cc1cc(N2CCN(C(c3ccnc4ccccc34)c3nnnn3-c3c(C)cccc3C)CC2)c2ccccc2n1 (stereo unspecified)
30.7	3.1	3.7	CCOC(=O)[C@]12CCCC=C1N(Cc1ccco1)C(=O)[C@H](CC(=O)NCCCOC)C2
54.2	-1.4	-5.0	COc1ccc(S(=O)(=O)N2CCCCCC2)cc1NC(=O)Cc1n[nH]c(=O)c2ccccc12
35.6	-16.9	-16.3	CC(C)(C)NC(=O)C1C(c2ccc(C(F)(F)F)cc2)=Nc2ccccc2N1C(=O)c1cccc2ccccc12 (stereo unspecified)
-53.3	3.5	-2.0	Cc1cccc(C)c1-n1nnnc1-c1nc2cc(Br)ccc2[nH]c1=O
1.5	2.2	3.3	O=S1(=O)CCN(C2CCCCCCC2)CC1
23.4	-7.4	-12.4	CCCCCCCCN1C(=O)[C@H](CC(=O)NCC2CCCCC2)C[C@@]2(C(=O)OC)CCCCC=C12
-4.6	4.2	5.9	O=C(NCc1ccncc1)[C@@H]1CCCN1C(=O)[C@H]1CCCN1C(=O)c1cccc(Cl)c1
-0.8	0.7	-12.5	CCCCCCCCN1C(=O)[C@H](CC(=O)NCc2cccs2)C[C@@]2(C(=O)OC)CCCCC=C12

The closing two records of the part before lead into the next.
HIV Env fusion	MT1-MMP act inh	MT1-MMP act inh RFP	smiles
-4.6	4.2	5.9	O=C(NCc1ccncc1)[C@@H]1CCCN1C(=O)[C@H]1CCCN1C(=O)c1cccc(Cl)c1
-0.8	0.7	-12.5	CCCCCCCCN1C(=O)[C@H](CC(=O)NCc2cccs2)C[C@@]2(C(=O)OC)CCCCC=C12
17.8	-11.8	-7.7	O=C(NC1CCCCC1)C(c1ccc(C(F)(F)F)cc1)n1c(=O)c(-c2ccco2)nc2ccccc21 (stereo unspecified)
79.3*	-8.5	-11.1	Cc1nc2c(o1)C(=O)c1ccccc1C2=Nc1ccccc1
-9.8	1.6	1.9	Nc1ccc(S(=O)(=O)c2cc(O)c3ccccc3c2O)cc1
6.2	12.4	6.0	Cc1ccc2cc(F)ccc2n1
-2.8	4.6	4.0	COC(=O)[C@@]1(Cc2ccc(OC)cc2)[C@H]2c3cc(C(=O)N4CCCC4)n(CCN4CCOCC4)c3C[C@H]2CN1C(=O)c1ccccc1
3.6	-0.8	5.0	CCC[C@H]1CN(c2ccccc2)C(=O)[C@@H]1CC(=O)Nc1ccc(Br)cc1
27.9	-3.9	-13.5	Cc1ccc(C(C)C)c(OCC(=O)Nc2ccc(N3CCOCC3)cc2N2CCOCC2)c1
-16.5	2.6	2.6	Cc1cccc(C)c1NC(=O)C1c2ccccc2OCC(=O)N1Cc1ccccc1 (stereo unspecified)
0.7	-9.2	-14.7	CCCCCCCCN1C(=O)[C@H](CC(=O)N2CCSCC2)C[C@@]2(C(=O)OC)CC(C)(C)CC=C12
-40.3	-10.1	-14.2	COc1cc(CC(=O)N2c3ccccc3N=C(c3ccccc3)C2C(=O)NCc2ccccc2)cc(OC)c1 (stereo unspecified)
-8.3	-4.6	2.4	COC(=O)c1nccnc1N
29.0	2.4	-1.7	CCOc1ccccc1NC(=O)COC(=O)c1c[nH]c2ccccc12
-1.8	2.7	2.6	Cc1cncc(NCc2cccc(Cl)c2)n1
-3.6	3.5	7.3	CC(C)C(=O)N1CCCC1(C)C(=O)NCc1ccccn1 (stereo unspecified)
-18.5	4.1	4.2	O=S1(=O)CC(N2CCCCC2)CN1Cc1cn(Cc2ccc(F)cc2)nn1 (stereo unspecified)
14.4	2.1	4.7	CC(C)(C)C(=O)c1c(N)[nH]c(C(=O)c2ccccc2)c1-c1ccc(F)cc1
-26.9&31.1	0.2&-1.5	0.3&0.4	O=C(C(=O)N1CCC(Cc2ccccc2)CC1)c1ccccc1
12.2	0.9	-1.0	CCOC(=O)[C@]12CCC=C1N(CCC1=CCCCC1)C(=O)[C@H](CC(=O)NCCCOC)C2
-4.4	1.5	4.4	COC(=O)/C=C1\OC(c2ccccc2)c2ccccc21 (stereo unspecified)
5.6	1.2	5.1	CCCC(=O)N1CCC1(C)C(=O)Nc1cc(OC)c(OC)c(OC)c1 (stereo unspecified)
11.7	-2.2	-12.3	CCC(c1nnnn1-c1ccc2c(c1)OCCO2)N1CCN(c2ccc(C(F)(F)F)cc2[N+](=O)[O-])CC1 (stereo unspecified)
17.8	2.9	6.8	COc1cc(CN2C[C@@H](CO)O[C@@H](n3cnc4c(NC(C)C)ncnc43)C2)cc(OC)c1OC
-41.1	-5.5	-15.2	O=C(NC1CCCC1)C1C(c2ccc(C(F)(F)F)cc2)=Nc2ccccc2N1C(=O)c1ccccc1 (stereo unspecified)
-3.4	3.3	0.0	CC(=NCc1ccccc1)c1ccccc1O
-18.3	0.0	0.5	O=C(CSc1ccc([N+](=O)[O-])cc1)c1ccccc1
-12.9	-0.2	8.6	Cc1cc(C)n2c(NC3CCCC3)c(-c3cc4ccccc4o3)nc2n1
0.7	12.1	3.8	COC(=O)C(C(=O)OC)c1cc2c(cc1CNS(=O)(=O)c1ccc(C)cc1)OCO2
-205.4	3.0	-3.4	CCSC(=O)N1c2ccc(OC)cc2C=CC1C#N (stereo unspecified)
-8.4	-3.4	-22.4	Cc1[nH]c2ccccc2c1C(=O)c1cc(Cc2ccccc2)sc1N
-62.5	1.2	4.0	O=C1C(Sc2cccc(F)c2)=C[C@@]2(O)CC[C@@H](O)[C@]1(Sc1cccc(F)c1)[C@H]2O
43.8	-2.7	-12.3	COC(=O)C1(C(=O)OC)C[C@H](c2cccs2)N(Cc2ccccc2OC)[C@@H]1c1ccc(F)cc1
6.0	6.3	6.5	COC(=O)C[C@@H]1CC[C@H](NC(=O)c2ccc3c(c2)OCO3)[C@@H](CO)O1
-8.8	0.2	3.3	Nc1[nH]c(C(=O)c2ccccc2)c(-c2ccccc2C(F)(F)F)c1C(=O)NCc1ccc(F)cc1
-3.2	4.0	5.3	O=C1NC[C@H](Cc2ccc(O)cc2)N(C[C@@H]2CCCN2C[C@H](Cc2ccccc2)N2C[C@H](Cc3ccc(O)cc3)N(CC3CCCCC3)C(=O)C2=O)C1=O
-25.0	1.9	5.6	CC(=O)C[C@@H]1OC[C@H](CO)N1S(=O)(=O)c1ccc(C)cc1
39.2	8.5	-2.5	CCCCCCCCN1C(=O)[C@H](CC(=O)NCCCOC)C[C@@]2(C(=O)OCC)CCCC=C12
-12.0	-0.2	1.0	Clc1ccc(-n2cnc3c(Cl)ncnc32)cc1Cl
36.1	-6.8	-11.4	CCOC(=O)[C@]12Cc3c(cc(OC)c(OC)c3OC)[C@H]1N(Cc1ccccc1)C(=O)c1cc(OC)ccc12
13.3	0.6	-29.3	CCc1c(-c2cccc(OC)c2)ncn1Cc1cccc(-c2ccccc2)c1
17.1	3.8	-2.0	CCCCC[C@H](C)N1C[C@@H](COCc2ccccc2)Oc2cc(N3CC[C@H](O)C3)ccc2S1(=O)=O
-13.9	4.8	-9.9	COC(=O)c1ccc2nc(-c3ccc(OC)c(OC)c3)c(Cc3cccc(F)c3)n2c1
25.5	-3.4	-24.4	CC(C)(C)c1ccc(-n2ncc3c2CCCC3NC(=O)c2ccco2)cc1 (stereo unspecified)
-243.7	0.1	-19.3	CC(=O)C(=Cc1ccc(-c2ccccc2)cc1)C(=O)c1ccccc1
57.8*	-12.4	-18.9	CCCCCCCCN1C(=O)[C@H](CC(=O)NCc2cccc3ccccc23)C[C@@]2(C(=O)OC)CC(C)(C)CC=C12
2.9	3.0	3.3	CCC(c1nnnn1-c1ccc2c(c1)OCCO2)N1CCc2ccccc2C1 (stereo unspecified)
2.4	2.6	2.2	O=C1NC[C@H](CCCCN2C[C@H](Cc3ccccc3)N(CCc3ccc(O)cc3)C(=O)C2=O)N(CCC2CCCCC2)C1=O
9.6	-3.0	-1.6	CN(CC(=O)Nc1cccc(F)c1)C(=O)c1ccccc1-n1cnnn1
-8.1	0.3	3.7	COC(=O)[C@@]1(Cc2ccc(F)cc2)[C@H]2c3cc(C(=O)N4CCCC4)n(C[C@H](O)CO)c3C[C@H]2CN1C(=O)c1ccccc1
-19.8	-2.8	3.9	CCCCCNC(=O)C1C(=O)Nc2ccccc2C(=O)N1c1c(C)cccc1C (stereo unspecified)
-3.5	0.2	-1.4	Cc1ccc(OCCN2CCC2(C)C(=O)Nc2ccc3c(c2)OCO3)cc1 (stereo unspecified)
4.7	3.1	4.1	Cc1nc2cc(Oc3nc(NCCN(C)C)nc4ccsc34)ccc2s1
-29.4	3.1	5.4	Cc1ccc(Cn2cc(CN3CC(N4CCCC4)CS3(=O)=O)nn2)cc1 (stereo unspecified)
-11.2	5.1	-5.0	O=C(Nc1ccc(F)cc1)C(c1ccnc2ccccc12)N1CCN(c2cccc(C(F)(F)F)n2)CC1 (stereo unspecified)
-67.0	-29.9	-28.5	O=C(OCc1ccccc1)c1ccc(NCc2cc(O)ccc2O)cc1
-0.5	2.3	-3.9	COC(=O)c1cc(NC(=O)COC(=O)CCc2c[nH]c3ccccc23)cc(C(=O)OC)c1
13.6	3.8	-4.0	CCCCCCN1CCN(C2CN(Cc3cn(Cc4ccc(Cl)cc4)nn3)S(=O)(=O)C2)CC1 (stereo unspecified)
-9.8	7.2	-1.5	Nc1ncn(C(=S)Nc2ccccc2)n1

Among those listed so far, 2 contain a nitro group on carbon:
HIV Env fusion	MT1-MMP act inh	MT1-MMP act inh RFP	smiles
11.7	-2.2	-12.3	CCC(c1nnnn1-c1ccc2c(c1)OCCO2)N1CCN(c2ccc(C(F)(F)F)cc2[N+](=O)[O-])CC1 (stereo unspecified)
-18.3	0.0	0.5	O=C(CSc1ccc([N+](=O)[O-])cc1)c1ccccc1

Look-ups from the results shown.
O=C(NC1CCCC1)C1C(c2ccc(C(F)(F)F)cc2)=Nc2ccccc2N1C(=O)c1ccccc1 (stereo unspecified) | HIV Env fusion = -41.1
COC(=O)[C@@]1(Cc2ccc(F)cc2)[C@H]2c3cc(C(=O)N4CCCC4)n(C[C@H](O)CO)c3C[C@H]2CN1C(=O)c1ccccc1 | MT1-MMP act inh RFP = 3.7

Molecules shown so far with a tert-butyl group:
HIV Env fusion	MT1-MMP act inh	MT1-MMP act inh RFP	smiles
35.6	-16.9	-16.3	CC(C)(C)NC(=O)C1C(c2ccc(C(F)(F)F)cc2)=Nc2ccccc2N1C(=O)c1cccc2ccccc12 (stereo unspecified)
14.4	2.1	4.7	CC(C)(C)C(=O)c1c(N)[nH]c(C(=O)c2ccccc2)c1-c1ccc(F)cc1
25.5	-3.4	-24.4	CC(C)(C)c1ccc(-n2ncc3c2CCCC3NC(=O)c2ccco2)cc1 (stereo unspecified)
